Screens (PubChem)
VDR inh – blocks the human vitamin D receptor. actives 0.93% (n = 400,000). VDR-SRC2-3 peptide fluorescence polarization, 2 h. Potency, µM, for inactives: max response, negative = inhibition, most hits filed as inhibitors. P11473; active means well fitted inhibition curve with a large enough effect; inconclusive means small, poorly fitted or top-dose-only effect, or another doubt; inactive means no such curve, though single readings can be large or run the other way; further: series mostly up to about 120 µM
Target sequence (P11473 whole entry, looked up): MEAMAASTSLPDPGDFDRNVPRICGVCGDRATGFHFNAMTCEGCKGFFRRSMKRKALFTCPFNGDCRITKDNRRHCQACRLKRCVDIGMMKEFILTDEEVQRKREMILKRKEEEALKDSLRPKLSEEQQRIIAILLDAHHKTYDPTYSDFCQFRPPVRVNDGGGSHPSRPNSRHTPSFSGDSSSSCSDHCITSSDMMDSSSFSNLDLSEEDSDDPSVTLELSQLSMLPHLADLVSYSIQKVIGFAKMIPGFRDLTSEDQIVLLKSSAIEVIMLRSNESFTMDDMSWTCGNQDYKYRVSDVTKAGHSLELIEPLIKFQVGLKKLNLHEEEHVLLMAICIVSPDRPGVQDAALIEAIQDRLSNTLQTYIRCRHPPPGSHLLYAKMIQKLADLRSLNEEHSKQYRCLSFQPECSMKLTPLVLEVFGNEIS
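Inhibition of the VDR/SRC2-3 peptide interaction is quantified by fluorescence polarization. Compounds (23 nl, pintool) incubate with the reagents for 2 hours at ambient room temperature.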
* = called active by the depositor; ? = inconclusive. On the % scale 0 is the no-effect control and ±100 the full control effect; potency means the concentration at half of the fitted maximal effect.

Compound | VDR inh
Cc1cc(C(=O)Nc2ccc(Br)cc2)cs1 | -3%
COc1ccccc1C(=O)N/C(=C\c1ccccc1)C(=O)NCc1ccco1 | 2%
CN(C)S(=O)(=O)c1cc(NC(=O)CSc2ncc(C(F)(F)F)cc2Cl)ccc1Cl | 1%
Cc1cccc(NS(=O)(=O)c2ccc(C3CCCCC3)cc2)n1 | -14%
CS(=O)(=O)c1ccc(Cl)c(NC(=O)CSc2nc3ccccc3c(=O)n2Cc2ccco2)c1 | -1%
Cc1ccc(S(=O)(=O)Nc2cnn(-c3ccccc3)c(=O)c2Cl)cc1 | 16%
COc1ccc(Cl)cc1NC(=O)CCc1nnc2ccc(N3CCC4(CC3)OCCO4)nn12 | -2%
COc1cc2cnncc2cc1OC | -9%
Cc1nc(Sc2ccc(Cl)cc2)c(C#N)c(C)c1[N+](=O)[O-] | 15%
CCOC(=O)c1c(-c2ccccc2)oc2ccc(OCC(N)=O)cc12 | 3%
COC(CNC(=O)c1ccc2c(c1)nc(C)n2-c1cccc(C)c1)OC | -11%
O=[N+]([O-])c1ccc(Nc2nc(NC3CCCCC3)nc(N3CCCC3)n2)cc1 | -19%
O=C(CC(=O)Nc1ccccc1C(=O)O)NNC(=O)Cc1ccccc1 | 3%
COC(=O)c1ccc(OC(=O)c2cccnc2)cc1 | -9%
CCOC(=O)c1cnc2ccc(C)cc2c1NCCc1ccc(OC)c(OC)c1 | -3%
Cc1c(NC(=O)CN2CCN(C(=O)c3ccco3)CC2)c(=O)n(-c2ccccc2)n1C | 6%
Cc1ccc(C)c(SCC(=O)NCc2ccco2)c1 | -11%
CS/C(N)=N/N=C/c1c(O)ccc2ccccc12 | -3%
CCCCC(C(=O)OCC(=O)c1ccc(OC)cc1)N1C(=O)c2ccccc2C1=O (stereo not drawn) | 2%
C=CCNC(=O)/C=C/c1cccs1 | 16%
CCc1ccc2ncc3c(-c4ccc(F)cc4)nn(CC(=O)NCc4ccccc4)c3c2c1 | 6%
Cc1ccccc1OCCNCC(C)O (stereo not drawn) | -1%
Cc1cc([N+](=O)[O-])nn1CCCC(=O)N1CCN(c2ccc(F)cc2)CC1 | -9%
CCCOc1ccc(-c2nnc(N)s2)cc1 | -19%
COc1cccc2c1C(=N)c1c(O)c3c(c(O)c1C2=O)CC(O)(C(C)=O)CC3OC1CC(N)C(O)C(C)O1 (stereo not drawn) | ?
CCOC(=O)C1CCN(CC(=O)Nc2cc(S(=O)(=O)N3CCOCC3)ccc2C)CC1 | 8%
COc1ccc(N2C(=NC(=O)CCC3CCCC3)SC3CS(=O)(=O)CC32)cc1 (stereo not drawn) | 9%
CS(=O)(=O)CCC(C(=O)O)N1C(=O)c2ccc(Oc3ccc(Cl)cc3)cc2C1=O (stereo not drawn) | -17%
Cc1ccccc1C(=O)NC(CC(C)C)C(=O)N1CCN(c2ccccc2)CC1 (stereo not drawn) | -14%
COc1ccccc1CN1C(=O)[C@H]2Cc3c([nH]c4ccccc34)C(C)(C)N2C1=O | -5%
COc1cccc(C(=O)OCC(=O)c2c[nH]c3ccccc23)c1O | 4%
O=c1c(=NNc2ccccc2Cl)c(=O)c2ccccc12 | -6%
Cc1nnc(Nc2ccc(C(=O)NCCO)cc2)c2ccccc12 | 8%
Cc1c2cnn(-c3ccccc3)c(=O)c2c(C)n1CC(=O)NCc1ccc(Cl)cc1 | 11%
CCOC(=O)c1[nH]cnc1C(=O)NC1CCCCC1 | 2%
CSc1nsc(/C=C/Nc2ccc(C)c(C)c2)c1C#N | 8%
CCOC(=O)/C(C#N)=C1/C(=O)N(Cc2ccccc2)c2ccccc21 | 28µM*
COc1cc(/C=N/NC(=O)CN2CCCCC2)ccc1OCc1ccc(Br)cc1 | 19%
CCCn1c(NC(=O)c2ccc(F)cc2)nc2ccccc21 | 1%
Cc1cccc(OCC(=O)OCC(=O)N2CCCc3ccccc32)c1C | 6%
Cc1onc(-c2c(F)cccc2Cl)c1C(=O)Nc1cccc(S(=O)(=O)NC2=NCCC2)c1 | -7%
COCCn1c(SCC(=O)NC2CCCCC2C)nc2ccccc2c1=O (stereo not drawn) | 3%
CC1=C(C(=O)Nc2cc(C)ccn2)C(c2cnn(C)c2)C2=C(CC(c3ccccc3)CC2=O)N1 (stereo not drawn) | -6%
O=C(Cc1nc(=O)c2ccccc2s1)Nc1ccccc1 | -8%
FC(F)(F)c1ccccc1-c1ccc2ncnc(NCc3cccnc3)c2c1 | ?
O=C(NNC(=O)c1cc(Br)ccc1Cl)c1csc(N2CCOCC2)n1 | 11%
COc1ccccc1/C=N/NC(=O)c1nnn(-c2nonc2N)c1-c1ccccc1 | -8%
CCCCCC(=O)Nc1cccc(C2=NOC3(C2)C[C@@H](C(N)=O)N(C(=O)CC(c2ccccc2)c2ccccc2)C3)c1 (stereo partly drawn) | -9%
COc1cc(-n2cnnn2)ccc1S(=O)(=O)N1CCOCC1 | 1%
CCCOc1ccc(-c2nn(-c3ccccc3)cc2/C=C2\SC(N)=NC2=O)cc1 | 1%
COc1ccc(-c2nc(CS(=O)CC(=O)NC3CCCCC3C)c(C)o2)cc1 (stereo not drawn) | 6%
Cc1ccc(Nc2nc(N)c3ccccc3n2)cc1C | 26%
O=C(CCC(=O)N1CCSc2ccccc21)Nc1cccc(F)c1 | 13%
CSCC[C@H](NC(=O)c1ccc(Cl)c([N+](=O)[O-])c1)c1nc2ccccc2[nH]1 | -11%
CC(=O)N1CCC(=NNc2ccnc3cc(Cl)ccc23)CC1 | -18%
CCOC(=O)C1CCN(C(=O)CSc2nc3ncccc3[nH]2)CC1 | 6%
CCOC(=O)c1ccccc1NC(=O)CN1C(=O)NC(C)(CCc2ccccc2)C1=O (stereo not drawn) | -9%
COc1ccc(N2CCN(C(=O)CCNS(=O)(=O)c3ccc(C)cc3)CC2)cc1 | 3%
COCCCN=Cc1c(C)[nH]n(-c2ccc(Br)c(C)c2)c1=O | -13%
COc1ccc(Cl)cc1NC(=O)c1nn(C)c2c1CS(=O)(=O)c1ccccc1-2 | 7%

Some of these compounds in order of formula weight, highest first:
Compound | VDR inh
COc1cccc2c1C(=N)c1c(O)c3c(c(O)c1C2=O)CC(O)(C(C)=O)CC3OC1CC(N)C(O)C(C)O1 (stereo not drawn) | ?
Cc1onc(-c2c(F)cccc2Cl)c1C(=O)Nc1cccc(S(=O)(=O)NC2=NCCC2)c1 | -7%
COc1cc(/C=N/NC(=O)CN2CCCCC2)ccc1OCc1ccc(Br)cc1 | 19%
CCOC(=O)C1CCN(CC(=O)Nc2cc(S(=O)(=O)N3CCOCC3)ccc2C)CC1 | 8%
O=C(NNC(=O)c1cc(Br)ccc1Cl)c1csc(N2CCOCC2)n1 | 11%
CCc1ccc2ncc3c(-c4ccc(F)cc4)nn(CC(=O)NCc4ccccc4)c3c2c1 | 6%
CS(=O)(=O)CCC(C(=O)O)N1C(=O)c2ccc(Oc3ccc(Cl)cc3)cc2C1=O (stereo not drawn) | -17%
CCCCC(C(=O)OCC(=O)c1ccc(OC)cc1)N1C(=O)c2ccccc2C1=O (stereo not drawn) | 2%
Cc1ccccc1C(=O)NC(CC(C)C)C(=O)N1CCN(c2ccccc2)CC1 (stereo not drawn) | -14%
COc1ccccc1CN1C(=O)[C@H]2Cc3c([nH]c4ccccc34)C(C)(C)N2C1=O | -5%
FC(F)(F)c1ccccc1-c1ccc2ncnc(NCc3cccnc3)c2c1 | ?
COc1ccccc1C(=O)N/C(=C\c1ccccc1)C(=O)NCc1ccco1 | 2%
Cc1cc([N+](=O)[O-])nn1CCCC(=O)N1CCN(c2ccc(F)cc2)CC1 | -9%
O=C(CC(=O)Nc1ccccc1C(=O)O)NNC(=O)Cc1ccccc1 | 3%
COC(CNC(=O)c1ccc2c(c1)nc(C)n2-c1cccc(C)c1)OC | -11%
CCOC(=O)C1CCN(C(=O)CSc2nc3ncccc3[nH]2)CC1 | 6%
COc1cccc(C(=O)OCC(=O)c2c[nH]c3ccccc23)c1O | 4%
Cc1nnc(Nc2ccc(C(=O)NCCO)cc2)c2ccccc12 | 8%
COc1cc2cnncc2cc1OC | -9%

Further entries.
Compound | VDR inh
O=C1C2C3CCC(C3)C2C(=O)N1Cc1ccco1 (stereo not drawn) | -5%
O=C(CP(=O)(c1ccccc1)c1ccccc1)Nc1cccc(CP(=O)(c2ccccc2)c2ccccc2)c1 | -3%
C#CCOCCOCCOCCNc1nc(N2CCN(C(=O)Cn3cc(CCCCN)nn3)CC2)nc(N2CCN(C(=O)Cn3cc(CC(C)O)nn3)CC2)n1 (stereo not drawn) | 0%
N#Cc1c(-c2ccccc2)cc(-c2ccccc2)nc1SCC(O)CS(=O)(=O)Cc1ccccc1 (stereo not drawn) | ?
CNC[C@@H]1Oc2ccc(NC(=O)Nc3c(C)noc3C)cc2CC(=O)N([C@H](C)CO)C[C@H]1C | -19%
Cc1csc(NC(=O)CCC(=O)N(CC(=O)NC2CCCCC2)c2ccccc2)n1 | 21%
Cn1c(=O)c2c(nc(NNC(=O)C(F)(F)F)n2C)n(C)c1=O | -11%
Cc1ccc(C)c(N(C)S(=O)(=O)c2ccc3[nH]cc(C(=O)NCCN4CCOCC4)c(=O)c3c2)c1 | -9%
COc1ccc(CC(=O)Nc2ccc(-c3nnc(-c4ccccc4)o3)cc2)cc1OC | -15%
CC(Oc1ccc2c(-c3ccccc3)cc(=O)oc2c1)C(=O)NCc1ccccn1 (stereo not drawn) | 0%
O=S(=O)(Nc1ccc2c(c1)oc1ccccc12)N1CCCC1 | 3%
COc1cccc(C(=O)NCCCNC(=O)c2cccc(OC)c2)c1 | -1%
CCc1cccc(C)c1NC(=O)COC(=O)Cn1c(C)csc1=O | 8%
CCn1c(C)nc2cc(C(=O)N/N=C(\C)c3ccc(N4CCOCC4)cc3)ccc21 | 1%
N/C(=N\OC(=O)c1ccco1)c1ccc(Cl)cc1 | -3%
CSC1=NC(C(Cl)(Cl)Cl)N=C(c2ccc(C)cc2)N1 (stereo not drawn) | -7%
COc1ccc(OC2C(=O)N(Cc3ccc(F)cc3)C2c2ccc(OC)c(OC)c2)cc1 (stereo not drawn) | -22%
CCOC(=O)N1CCC(N(CCN(C)C)C(=S)Nc2cc(Cl)ccc2C)CC1 | -18%
O=C(Cn1cc([N+](=O)[O-])cn1)NCc1ccccc1 | -22%
COc1ccccc1NC(=O)CSc1nnc(Cn2cnc3ccccc32)o1 | 0%
O=C(Nc1ccc(Cl)cn1)c1ccc(-c2ccc(Cl)c(Cl)c2)o1 | 5%
CCOC(=O)N1CCN(C(=O)c2ccc3ccccc3c2)CC1 | -17%
O=C(CC1SCCNC1=O)Nc1cc(Cl)cc(Cl)c1 (stereo not drawn) | -5%
O=C(Nc1nc2cc3c(cc2s1)OCO3)C1CC1 | 11%

Marked active in VDR inh (from the list above):
Compound | VDR inh
CCOC(=O)/C(C#N)=C1/C(=O)N(Cc2ccccc2)c2ccccc21 | 28µM*

The list is partial (hit frequency here may not be typical).
